# Compound activity as filed in PubChem BioAssay.
# MLL AF4-AF9 inh = inhibitors of human MLL-AF4/AF9 interaction | P42568 | AlphaScreen, biotin-AF4 peptide binding to FLAG-AF9 | inhibition, % at 10 µM | 350,000 tested, 0.47% active;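 active = every replicate reaching a set inhibition limit, whatever the replicate mean, cut at about 25% in these data; inconclusive = mean inhibition reaches that limit but some replicates miss it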;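 also: 0% = plate neutral control median and 100% = total signal loss; the record names both 10 and 1 µM as test concentration; the first replicate is given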
# Target sequence (P42568 whole entry, looked up): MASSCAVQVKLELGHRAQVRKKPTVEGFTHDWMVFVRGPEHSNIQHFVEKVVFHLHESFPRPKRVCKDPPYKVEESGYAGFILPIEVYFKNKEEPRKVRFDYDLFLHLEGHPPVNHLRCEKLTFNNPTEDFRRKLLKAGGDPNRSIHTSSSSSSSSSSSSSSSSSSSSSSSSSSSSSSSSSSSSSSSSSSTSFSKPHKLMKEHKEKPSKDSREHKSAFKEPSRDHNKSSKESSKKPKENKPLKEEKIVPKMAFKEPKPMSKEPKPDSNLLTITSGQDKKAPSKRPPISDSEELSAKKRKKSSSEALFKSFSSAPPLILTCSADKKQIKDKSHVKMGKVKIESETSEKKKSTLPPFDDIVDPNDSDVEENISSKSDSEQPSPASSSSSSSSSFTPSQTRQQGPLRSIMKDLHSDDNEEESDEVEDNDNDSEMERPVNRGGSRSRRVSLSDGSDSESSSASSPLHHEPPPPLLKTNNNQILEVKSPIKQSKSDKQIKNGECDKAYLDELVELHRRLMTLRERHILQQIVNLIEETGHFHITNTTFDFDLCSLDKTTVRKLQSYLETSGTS
# Calb FLC = affects C. albicans growth with fluconazole; C. albicans CaCi-2 (fluconazole-resistant clinical isolate) + fluconazole, Alamar Blue growth, 48 h; 300,000 tested, 0.57% active; growth inhibition, % (concentration not given with the values); AID 1979;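 active = most replicates above 75%; inconclusive = exactly half above 75%; inactive = most below 75%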;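 also: all wells also contain fluconazole at 8 µg/ml as a sub-toxic cotreatment; 0% = median of DMSO wells and 100% = median of geldanamycin control wells; wells of about 8 µL received 7.5 nL stock; the first replicate is given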
# A1 inh = inhibitors of the anti-apoptotic protein A1, read as caspase activation. 330,000 tested, 0.066% active. caspase activation, % (no concentration beside the values). MEF A1-2A-BIM cells, Caspase-Glo 3/7 luminescence, 3 h; percent of clofoctol response, vehicle zero;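 active = over half of replicate activation scores above 10%, or exactly half above 10 with the replicate mean above 10; inconclusive = replicate mean below 10 yet half the replicates above 10; inactive = over half of replicates below 10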;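 also: wells of about 30 µL received 50 nL stock; many hits fall short of the cut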
# Beta apoptosis = beta cell apoptosis inhibition; INS-1E cytokine-induced death, ATP luminescence, 48 h; percent of positive-control rescue, neutral wells zero; protection from apoptosis, % (concentration not given with the values); 300,000 tested, 0.8% active; AID 435005;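 active = all replicates at 75% or more, or half of them and the mean; inconclusive = half reach 75% but not the mean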;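 also: 0% = cytokine-treated negative control wells and 100% = positive control rescue; higher means more ATP so stronger rescue from cytokine killing; wells of about 40 µL received 100 nL stock; the first replicate is given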
# Vif A3G = HIV-1 Vif–A3G interaction blockers – biochemical, TR-FRET, GST-Vif 1-94, biotin-A3G peptide, dose response retest, primary screen (AID 1117319). TR-FRET GST-Vif / biotin-A3G peptide binding; higher % means a stronger effect; test concentration not given here; strong numbers were not always called active. one-dose inhibition, %; IC50 in µM for titrated hits. 260,000 tested, 0.57% active;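 active = above the screen mean plus three standard deviations and confirmed in dose response; inconclusive = results disagree or hit not tested in dose response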;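 also: Vif residues 1-94 fused to GST binding biotinylated APOBEC3G peptide 110-148; 0% = full assay without inhibitor and 100% = GST in place of GST-Vif; retest series ran down from 100 µM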
# T cruzi repl = blocks replication of Trypanosoma cruzi. AID 1885. T. cruzi beta-gal in NIH3T3, luminescence, 90 h. 300,000 tested, 1.4% active. inhibition, % (concentration not given with the values);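 active = mean inhibition across valid replicates above about 55%, limit read from the data; inconclusive = mean below that limit but half or more replicates reach it; inactive = mean below it, under half of replicates reach it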;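 also: signal also drops with host cell toxicity which is not excluded here; 0% = plate median of DMSO wells and 100% = zero luminescence signal; higher percent means less beta-gal luminescence so fewer parasites; stock transfer was 50 nL into about 50 µL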
# LANA-H2B inh = blocks KSHV LANA binding to histone H2A/H2B; Q9QR71; cell-free LANA-H2A/H2B peptide, fluorescence polarization; inhibition, % (concentration not given with the values); 320,000 tested, 0.6% active; in the data active = inhibition mostly above about 10%, no sharp cut-off; inactive = mostly below about 6.7%;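 also: stock transfer was 7.5 nL into about 10 µL; 0% = median of vehicle wells and 100% = median of positive control wells; one replicate is shown; the record names a cut of 25% in any replicate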
# RanGTP-Impb inh = disruptors of Ran-importin-beta complex formation – biochemical, FRET, CFP-Ran, YFP-importin-beta, homogeneous, primary screen. cell-free CFP-Ran/YFP-importin-beta FRET ratio. inhibition, % (no concentration beside the values). 300,000 tested, 1.1% active;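 active = most replicates above 15%; inconclusive = exactly half above 15%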;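 also: 0% = DMSO wells and 100% = Ran loaded with GDP instead of GTP; wells of about 40 µL received 100 nL stock; the first replicate is given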
# * marks the source's active call; other numbers are inactive results; u = inconclusive; x = not tested or not shown.
SMILES,MLL AF4-AF9 inh,Calb FLC,A1 inh,Beta apoptosis,Vif A3G,T cruzi repl,LANA-H2B inh,RanGTP-Impb inh
CC(C)CN1CCN(Cc2c[nH]c3ccccc23)CC1CCO (stereo not drawn),4.4,-17,0.8,-3,x,-15,3.8,-0.6
COc1ccc(S(=O)(=O)N2CCC(=O)N2)cc1,x,0,-0.1,0,u,-23,0.2,-1.4
C[C@H]1CN=C(Nc2ccccc2)N1CCC1CCCC1,1.1,-7,-0.2,-3,x,-7,-6.6,0.8
O=[N+]([O-])c1ccc(Cc2ccccn2)c([N+](=O)[O-])c1,x,-4,1.7,4,x,x,-1.7,-0.9
CC1CCCN(CCOc2cccc(Oc3ccccc3)c2)C1 (stereo not drawn),6.8,-3,-0.7,x,x,29,-3.8,-2.3
O=C(NCc1ccc(F)cc1Cl)C1CC(=O)N(C2CCCCCCC2)C1 (stereo not drawn),2.5,-20,0.4,-6,x,6,7.7,3.5
COc1ccc(-c2cc(C3CC3)nc(SCC(=O)c3cccs3)c2C#N)cc1,x,6,u,-6,x,19,3.7,2.4
CC1Oc2ccccc2C=C1/C=N/NC(=O)[C@@H](C)NC(=O)OC(C)(C)C (stereo partly drawn),2.2,5,-0.6,-6,18%,x,0.8,2.1
O=C(NN1C(=O)/C(=C/C=C/c2ccccc2)SC1=S)c1ccncc1,0.5,23,0.1,5,10%,19,-1.4,-4.7
CC1CC(C)CN(S(=O)(=O)N2CCCC(C(=O)NCCc3ccc(Cl)cc3)C2)C1 (stereo not drawn),-3.7,7,0.0,5,x,38,-1.1,-2.8
O=C(N/N=C/c1ccccn1)c1ccc(Cl)c(Cl)c1,2.0,-16,0.6,18,x,37,3.0,2.4
Cn1cc(CN2CCN(CCO)CC2)c(-c2ccc(Oc3ccccc3)cc2)n1,3.0,-6,1.7,-2,>100µM*,20,1.4,3.4
COc1ccc(C(=O)NCc2cn3cccc(C)c3n2)cc1OC,-4.1,0,0.8,2,78%,-20,-3.0,1.3
Cc1cccc(C(C(=O)NC2CCCC2)N(C(=O)c2csnn2)C2CCCC2)c1 (stereo not drawn),2.1,-3,0.0,-4,x,7,5.3,0.7
CCC(C)NS(=O)(=O)c1ccc(OCC(=O)NCc2ccc3c(c2)OCO3)cc1 (stereo not drawn),x,-4,0.2,-2,-1%,2,-0.3,0.1
O=C(c1ccc2nc(N3CCCCC3)sc2c1)N1CCN(Cc2ccc3c(c2)OCO3)CC1,10,-2,0.5,x,1%,22,-1.6,0.8
Cc1oc(-c2cc(F)ccc2F)nc1CN1CCN(c2cnccn2)CC1,1.0,-19,-1.9,1,-3%,-10,-0.1,-5.5
CCCC(=O)Nc1c(-c2cccs2)c(=O)c2ccccc2n1CC,x,2,0.6,-2,-1%,-2,-1.1,1.5
COC(=O)c1sc2nc(N3CCCCC3)c3c(c2c1N)CCCC3,x,7,0.1,6,-11%,16,-4.2,1.7
Cc1ccc(-n2c(SCC(=O)NC3CCCCC3)nc3c(c2=O)SCC3)cc1,-2.1,-2,0.7,1,-9%,12,0.6,-1.6
CC(=O)c1nn(-c2ccccc2)cc1C(=O)c1ccc(C)cc1,-0.6,7,-0.7,x,x,6,5.7,1.1
Cc1cc([N+](=O)[O-])ccc1NC(=O)C[n+]1ccc(N(C)C)cc1,-9.0,-11,-0.4,x,5%,-8,0.6,-5.1
C=CCN(C(=O)Cn1c(C(=O)OC)cc2oc(C)cc21)c1ccccc1,x,11,0.0,1,8%,2,-2.1,-2.4
O=C(c1ccccc1)c1cc[n+]([O-])cc1,x,-2,-0.7,x,x,0,-4.4,-0.3
CCCOc1ccc(NC(=O)CC2C(=O)N(CC)C(=S)N2CCNC(C)=O)cc1 (stereo not drawn),x,6,0.5,-4,1%,-16,-1.2,6.1
O=C(O)CC(Cn1cnnn1)c1ccccc1 (stereo not drawn),-2.4,-5,-0.2,0,59µM*,-9,2.3,5.6
COc1ccccc1-c1nnc(SCC(=O)Nc2oc(C)c3c(C)n[nH]c(=O)c23)n1C,-2.7,4,0.5,-3,6%,-1,-6.9,4.5
Cn1nnnc1SCC(=O)N1CCN(C(=O)c2ccco2)CC1,1.0,33,-0.5,-6,-1%,-13,7.2,1.1
Cc1ccc(-c2nc(CN(C)C(C3CC3)C3CC3)c(C)o2)cc1,0.6,-22,-0.6,-12,0%,3,1.6,u
Cc1ccc(-n2ncc(C(=O)N3CCN(C(=O)c4ccco4)CC3)c2C2CCN(C(=O)OC(C)(C)C)CC2)cc1C,0.0,3,0.0,-10,8%,3,-4.6,1.9
COc1ccc(C2=C(C=Nc3c(C)n(C)n(-c4ccccc4)c3=O)C(c3ccccc3C)c3ccccc3O2)cc1OC (stereo not drawn),x,-3,0.7,22,-2%,54,-1.1,2.3
O=C(CNc1cccc2ccccc12)N/N=C/c1ccc(C(=O)O)cc1,4.8,5,-0.3,-5,9%,-9,-9.1,2.6
COc1ccc(S(=O)(=O)NCCSCc2cccs2)cc1,x,13,-0.7,-7,6%,-1,2.5,0.6
OCC[C@@H]1C[C@@H](O)[C@H](O)[C@@]2(CCCCO2)O1,-16,10,-0.8,1,x,-7,-0.4,8.6
CC(C)(O)C#Cc1ccc(C(=O)N2CCN(c3ccc(F)cc3)CC2)cc1,-0.1,-15,0.1,-9,-7%,2,6.9,-0.9
COC(=O)C1CN(C(=O)COc2ccc(Cl)c(C)c2)c2ccccc2O1 (stereo not drawn),0.0,0,2.3,-17,-4%,16,2.3,5.8
C=CCNC(=O)NC(=O)COC(=O)c1ccccc1Sc1ccc(C(F)(F)F)cc1[N+](=O)[O-],3.6,-13,-0.3,4,x,22,0.0,2.1
O=C(c1ccccc1)c1ccc(OCCCN2CCCC2)cc1,-11,5,0.5,-4,5%,55*,0.1,2.0
CC(=O)c1ccc(OCC(=O)Nc2ccc(N3CCCCC3)cc2)cc1,26*,x,-0.1,-6,-2%,x,0.4,x
O=C(NNc1cccc(Cl)n1)c1ccccc1CC[N+](=O)[O-],-1.4,-4,-0.2,1,-6%,3,4.6,0.2

# Look-ups from above:
# CC(C)(O)C#Cc1ccc(C(=O)N2CCN(c3ccc(F)cc3)CC2)cc1 @ LANA-H2B inh: 6.9
# COc1ccccc1-c1nnc(SCC(=O)Nc2oc(C)c3c(C)n[nH]c(=O)c23)n1C @ T cruzi repl: -1

# (cont.)
SMILES,MLL AF4-AF9 inh,Calb FLC,A1 inh,Beta apoptosis,Vif A3G,T cruzi repl,LANA-H2B inh,RanGTP-Impb inh
OC1CCCN(Cc2ccc3ccc4cccc5ccc2c3c45)C1 (stereo not drawn),x,-8,0.4,54,u,50,8.0,41*
COc1ccc2nc(Nc3ccccc3OC)sc2c1,1.5,-11,-9.5,16,5%,-5,-1.9,7.2
Nc1nc2ccccc2[nH]1,-1.5,-5,u,0,-3%,5,-2.1,-2.7
Cc1cccc(/C(N)=N/OC(=O)COc2ccc(Cl)c(C)c2)c1,-6.6,25,2.6,-8,-6%,6,3.5,1.0
Cc1ccn2c(CN(C)CCn3nc(C)cc3C)c(C(=O)N3CCCCCC3)nc2c1,1.1,-5,-0.4,2,-4%,0,2.5,-13
O=C(c1cc(-c2cccc(Cl)c2)on1)N1CCOCC1,-1.8,8,-1.8,-1,x,-2,3.4,-1.5
COc1cc(OC)cc(C(=O)N2CCC(C(=O)N3CCOCC3)CC2)c1,-1.4,13,1.5,-3,x,8,-3.1,-0.6
C=CCNC(=S)N/N=C(\C)c1ccc(-n2ccnc2)cc1,-0.4,-2,-0.7,-2,-1%,2,-1.7,6.1
COC(=O)c1sc2ccccc2c1-n1cccc1C(=O)C(=O)Nc1ccc(Cl)cc1,x,37,-0.2,7,5%,10,11,3.3
O=C(O)CC(C(=O)O)c1cn(Cc2ccccc2)c2ccccc12 (stereo not drawn),x,6,1.1,1,3%,-2,-3.5,2.8
O=C(CN1C(=O)C2CC=CCC2C1=O)NCc1ccc2c(c1)OCO2 (stereo not drawn),x,-9,-0.9,2,4%,-7,0.6,1.1
CC(=O)c1nc(N2C(=O)CC(Cc3cc(C)cc(C)c3)C2=O)sc1C (stereo not drawn),x,-1,0.1,-11,x,-1,-11,-2.4
COc1cccc(NC(=O)CN2C(=O)COc3ccc(S(=O)(=O)N4CCOCC4)cc32)c1,2.8,-5,1.3,1,0%,-10,2.6,-1.2
COc1cc(C(C)=O)ccc1OCC(O)CN(CCO)Cc1ccccc1 (stereo not drawn),-1.8,-11,0.8,1,-5%,-2,-0.3,1.3
Cc1noc(/C=C/N(C)C)c1S(=O)(=O)N1CCCC(C(=O)NC(C)c2ccccc2)C1 (stereo not drawn),x,-10,0.4,-8,7%,-4,2.6,-1.4
Cc1c(NC(=O)CSc2nncn2-c2ccccc2)c(=O)n(-c2ccccc2)n1C,-1.1,-1,0.2,x,8%,-5,-3.9,4.7
CC(=O)Oc1ccc(-c2cccc(C(=O)NCC(=O)O)c2)cc1,x,37,1.8,-5,-5%,-6,-0.7,-3.3
C=CCc1cc(/C=N/n2cnnc2)cc(OCC)c1O,x,11,0.1,-3,0%,-13,0.5,4.3
Cc1ccc(-n2nc(C)c3cc(C(=O)O)sc32)cc1,x,x,0.4,-9,u,-8,3.5,-3.8
O=c1[nH]c2ccccc2c(O)c1Cc1ccccc1,-5.3,-9,0.8,12,x,-6,3.8,-2.2
Nc1ccc(Nc2nc(-c3cccs3)cs2)cc1,1.1,-1,-1.0,1,3%,40,5.6,-1.6
CSCc1ccc(C(=O)N2CCCC(Nc3ccc(F)cc3)C2)o1 (stereo not drawn),-0.5,-2,0.0,5,x,4,4.2,0.8
Cc1ccc(-c2ccc(=O)n(CC(=O)N3CCN(c4cccc(C)c4)C(C)C3)n2)cc1 (stereo not drawn),2.4,17,0.1,4,3%,17,0.4,8.9
C/C(=N\N=C(N)N)c1ccc(Cl)cc1,x,-12,-0.1,-10,x,35,3.7,-2.7
CCCn1c2ccccc2c2cnn(CC(=O)NC3CCN(Cc4ccccc4)CC3)c(=O)c21,-0.4,2,-0.5,-1,x,46,-0.4,-0.5
CCn1c(-c2nn(C)c(C)c2Cl)n[nH]c1=S,x,-8,0.0,-3,0%,-8,-8.4,-5.0
CCCCCn1nc(C(=O)N(CC)c2c(N)n(CCCC)c(=O)[nH]c2=O)c2ccccc2c1=O,-1.5,x,-1.0,-7,-4%,x,-2.4,x
COc1ccc(-n2nnnc2SCC(N)=O)cc1,x,3,0.3,-4,-1%,-16,1.2,-0.2
Cc1ccc(F)cc1S(=O)(=O)NCc1ccc(N2CCN(C)CC2)cc1,-0.7,-21,1.5,-4,30%,20,2.4,u
O=C(COC(=O)c1ccc(S(=O)(=O)N2CCCC2)cc1)Nc1ccc(N2CCOCC2)cc1,0.0,4,-0.8,x,-12%,-10,2.8,u
Nc1c(C(=O)Nc2ccccc2F)sc2nc(-c3ccco3)ccc12,x,-3,2.2,0,u,-54,-2.4,-7.9
CC(=O)Nc1ccccc1NC(=O)C/C(C)=N/NC(=O)c1ccncc1,-4.4,12,-0.4,0,3%,-25,-0.9,x
